Bioassay records from PubChem BioAssay.
ROCK2 inh: inhibitors of human Rho kinase 2; purified ROCK2, Kinase-Glo ATP depletion luminescence; O75116; inhibition, % at 6 µM; 0.35% of 60,000 active;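 active means inhibition above the screen-wide mean inhibition plus 3 SD, cut at about 18% in these data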;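 further: plate controls were DMSO wells for no effect and Y-27632 control wells after no-enzyme background subtraction for full effect; many of its hits are not listed in these tables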
DUSP1 inh: blocks human MKP-1 phosphatase activity; recombinant MKP-1, OMFP hydrolysis fluorescence; inhibition, %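 (compounds tested at a single concentration somewhere between 10 and 100 µM)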; 0.15% of 65,000 active;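 active means inhibition above about 50%, limit read from the data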;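 further: 0% = DMSO max control wells and 100% = wells with enzyme stopped by NaOH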
Target sequence (P28562 whole entry, looked up): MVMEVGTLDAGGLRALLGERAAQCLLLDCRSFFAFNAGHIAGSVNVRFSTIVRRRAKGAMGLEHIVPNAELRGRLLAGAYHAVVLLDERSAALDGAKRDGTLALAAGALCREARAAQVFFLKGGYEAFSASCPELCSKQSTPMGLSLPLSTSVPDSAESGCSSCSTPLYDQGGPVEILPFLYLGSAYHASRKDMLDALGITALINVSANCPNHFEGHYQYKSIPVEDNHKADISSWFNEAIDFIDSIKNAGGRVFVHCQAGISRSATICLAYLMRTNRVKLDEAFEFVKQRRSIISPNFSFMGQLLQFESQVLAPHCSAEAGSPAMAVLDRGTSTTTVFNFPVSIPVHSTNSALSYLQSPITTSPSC
TNAP act DEA: human TNAP activation, intermediate phosphate acceptor; P05186; purified TNAP, CDP-star luminescence, 100 mM DEA, 30 min; hits give high values; scale: 0 levamisole-inhibited, 1 vehicle-only enzyme; activation factor at 20 µM; 64,000 tested, under 10 active; AID 813;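 active means activation factor of at least 2 at 20 µM, relative to controls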
Target sequence (P05186 whole entry, looked up): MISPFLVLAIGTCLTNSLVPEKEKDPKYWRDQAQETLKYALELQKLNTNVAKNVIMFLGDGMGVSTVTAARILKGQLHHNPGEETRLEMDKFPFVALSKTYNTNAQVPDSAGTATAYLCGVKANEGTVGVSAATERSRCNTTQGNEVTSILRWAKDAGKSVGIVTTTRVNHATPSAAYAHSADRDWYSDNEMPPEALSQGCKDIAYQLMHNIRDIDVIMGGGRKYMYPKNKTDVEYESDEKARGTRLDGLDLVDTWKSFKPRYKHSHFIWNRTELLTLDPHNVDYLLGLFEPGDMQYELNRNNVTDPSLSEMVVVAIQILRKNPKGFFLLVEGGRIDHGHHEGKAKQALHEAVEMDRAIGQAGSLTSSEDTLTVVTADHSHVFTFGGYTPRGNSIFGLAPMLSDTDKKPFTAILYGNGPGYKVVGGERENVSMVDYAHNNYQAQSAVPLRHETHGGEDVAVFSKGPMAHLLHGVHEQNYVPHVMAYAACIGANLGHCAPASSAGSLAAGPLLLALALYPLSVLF
HEK293 NFkB inh: lowers PMA/ionomycin-induced NF-kB signal in HEK293 cells. HEK-293 NF-kB luciferase reporter, luminescence. inhibition, % at 3 µM. 0.21% of 62,000 active;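 active means inhibition above the mean of all tested compounds plus 3 SD, cut at about 40% in these data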;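 further: 0% = stimulated DMSO wells and 100% = 10 µM reference inhibitor 5653914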
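Material: HEK-293 cells with stable firefly luciferase reporter driven by four HIV NF-kB elements / Also added: PMA plus ionomycin mix as NF-kB-activating stimulus / Compound dosing: 3 µM once, 0.30% DMSO / Times: 1 h pretreatment, 16 h stimulation, 37 °C / Signal: luminescence / Evaluation: per-plate % inhibition versus controls / Benchmarks: DMSO and 10 µM reference inhibitor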
Jurkat tox 60K: cytotoxicity toward Jurkat cells. Jurkat E6.1 viability, ATP luminescence, 48 h. inhibition, % at 4 µM. 1.2% of 56,000 active. AID 463;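 active means inhibition above the mean inhibition of all tested compounds plus 3 SD, cut at about 28% in these data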
Cdc25B inh: human M-phase inducer phosphatase 2 inhibition | P30305 | recombinant Cdc25B, OMFP fluorescence Ex485/Em525 | inhibition, %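 (compounds tested at 10 µM final in the well)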 | 0.1% of 65,000 active | AID 368; in the data active means inhibition above about 50%
MMP13 inh: blocks human MMP13 activity. P45452. MMP-13 fTHP FRET cleavage, Mca fluorescence. inhibition, % at 4 µM. 0.07% of 65,000 active;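 active means inhibition above the mean of compound-free control plate wells plus 3 SD, cut at about 14% in these data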;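 further: 0% = DMSO wells and 100% = wells with reference MMP-13 inhibitor after basal subtraction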
PKA inh: blocks human protein kinase A activity | P17612 | PKA Kemptide phosphorylation, Kinase-Glo ATP luminescence | inhibition, % at 6 µM | 0.1% of 65,000 active;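 active means inhibition above the screen-wide mean inhibition plus 3 SD, cut at about 21% in these data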; further: many of its hits are not listed in these tables
Starred values were filed as active, the others as inactive; · = not tested or not shown; [ ] = remark or other dose. An excerpt; rates above refer to the full screens.

1) COc1cccc(C2=NOC(C(=O)NCCN3CCOCC3)C2)c1 (centres undefined)
2) COC(=O)c1sc(Nc2ccccc2)nc1C
3) C=CCn1c(SCC(=O)Nc2sccc2C(N)=O)nc2sc(C)c(C)c2c1=O
4) O=C(Nc1ccccc1N1CCOCC1)c1ccc(Br)o1
5) COC(=O)c1sccc1NC(=O)c1ccncc1
6) CN(CCCn1c(=S)[nH]c2ncccc2c1=O)Cc1ccccc1
7) C/C=C/c1ccc(Oc2nnnn2-c2ccc(C(N)=O)cc2)c(OC)c1
8) NC(=O)c1cc(Cc2ccccc2)sc1NC(=O)c1ccco1
entry no.	1	2	3	4	5	6	7	8
ROCK2 inh	-1	5	4	3	4	4	-3	9
DUSP1 inh	5	-19	26	13	-3	-5	6	4
TNAP act DEA	1	0.8	0.9	0.9	0.8	1	0.9	0.9
HEK293 NFkB inh	20	7	-2	3	18	18	15	-40
Jurkat tox 60K	8	-9	-6	0	-2	-2	7	-9
Cdc25B inh	-3	-6	4	2	1	1	-9	-8
MMP13 inh	0	-6	-6	-1	4	-7	0	-7
PKA inh	4	0	9	11	-2	10	-4	10

9) Clc1ccc(-c2nc(NCCN3CCOCC3)c3ccccc3n2)cc1
10) Cc1ccc(NC(=O)CS(=O)CC(=O)NC2CCN(Cc3ccccc3)CC2)c(C)c1 (centres undefined)
11) CCOC(=O)N1CCN(C(=O)c2ccc3c(=O)n(CCC4=CCCCC4)c(=O)[nH]c3c2)CC1
12) Cn1c(NC(=O)c2cccnc2)nc2ccccc21
13) Cc1cc(C)n(-c2ccc(C(=O)Nc3ccccn3)cc2)n1
14) O=C(c1ccc(Cn2c(=O)[nH]c3ccccc3c2=O)cc1)N1CCN(c2ccc(Cl)cc2)CC1
15) O=CN1CC(=O)N(c2ccccc2)c2c([nH]c3ccccc23)C1
16) CCOc1cc2[nH]c(=O)n(CC3CCC(C(=O)NCCCOC)CC3)c(=O)c2cc1OCC (centres undefined)
entry no.	9	10	11	12	13	14	15	16
ROCK2 inh	0	-7	-2	4	-2	3	8	3
DUSP1 inh	9	17	33	-9	7	28	2	14
TNAP act DEA	0.9	0.9	0.9	1	0.9	0.9	0.9	1
HEK293 NFkB inh	17	4	18	-20	-37	34	15	15
Jurkat tox 60K	6	8	6	0	-1	4	4	2
Cdc25B inh	-7	-16	-2	7	1	-8	11	-12
MMP13 inh	-11	6	-5	4	4	-1	-1	-16
PKA inh	4	-4	2	12	5	0	6	4

17) CC(C)CCn1c(=S)[nH]c2ncccc2c1=O
18) Cc1cc(C)n(-c2ccc(C(=O)NC(C)C)cc2)n1
19) CN(C)CCSc1nnc2sc3ccccc3n12
20) CN(c1ccccc1C(=O)Nc1cccc(C(F)(F)F)c1)S(C)(=O)=O
21) COC(=O)c1ccsc1NC(=O)C1=COCCO1
22) O=C(Nc1cccnc1)C1CC(c2ccc(Cl)c(Cl)c2)=NO1 (centres undefined)
23) CCOC(=O)c1cnc(SCC(=O)Nc2nnc(CC)s2)nc1N
24) COC(=O)c1ccsc1NC(=O)c1ccc(Cl)s1
entry no.	17	18	19	20	21	22	23	24
ROCK2 inh	2	3	1	9	-2	7	4	6
DUSP1 inh	-4	7	-12	7	6	2	-15	9
TNAP act DEA	1	0.9	0.8	0.9	0.9	0.9	0.9	1
HEK293 NFkB inh	15	5	-11	14	17	10	5	11
Jurkat tox 60K	-6	-5	-2	4	-5	4	-2	-11
Cdc25B inh	-6	-4	-10	8	-7	-6	-1	-8
MMP13 inh	-2	2	-1	1	5	3	-1	-10
PKA inh	10	5	-5	6	3	4	6	6

Not a retest: an excerpt of the list.
17) CC(C)CCn1c(=S)[nH]c2ncccc2c1=O
18) Cc1cc(C)n(-c2ccc(C(=O)NC(C)C)cc2)n1
19) CN(C)CCSc1nnc2sc3ccccc3n12
entry no.	17	18	19
ROCK2 inh	2	3	1
DUSP1 inh	-4	7	-12
TNAP act DEA	1	0.9	0.8
HEK293 NFkB inh	15	5	-11
Jurkat tox 60K	-6	-5	-2
Cdc25B inh	-6	-4	-10
MMP13 inh	-2	2	-1
PKA inh	10	5	-5

Later entries.
25) O=C(c1ccc(Cn2c(=O)[nH]c3ccccc3c2=O)cc1)N1CCN(c2ccccc2)CC1
26) CCN1CCN(c2c(Cl)cccc2NC(=O)c2ccco2)CC1
27) COc1ccc(S(=O)(=O)N2CCC(n3cnc4cc(C(F)(F)F)ccc43)CC2)cc1
28) CCc1ccccc1NC(=O)N[C@@H](C)C(=O)OC
29) O=C(c1ccc2c(=O)n(-c3ccccc3)c(=O)[nH]c2c1)N1CCCCC1
30) COC(=O)c1ccccc1NC(=O)CSc1nc(N)cc(N)n1
31) CCCCc1nc(NCC2CCCO2)c(C#N)c2c1COC(C)(C)C2 (centres undefined)
32) COc1cccc(C(=O)Nc2c(C(N)=O)oc3ccccc23)c1
entry no.	25	26	27	28	29	30	31	32
ROCK2 inh	4	-5	3	4	6	3	9	3
DUSP1 inh	21	2	14	-10	2	0	-23	-3
TNAP act DEA	0.9	0.8	1	1	0.9	0.9	0.9	0.9
HEK293 NFkB inh	21	2	12	5	7	7	·	6
Jurkat tox 60K	-3	9	5	5	19	6	·	-6
Cdc25B inh	-6	1	-12	4	-4	-11	2	4
MMP13 inh	-3	0	-4	6	-3	1	-71[fluorescence artefact?]	3
PKA inh	9	-3	6	-2	3	9	4	8

33) CCCCOCCCNC(=O)N[C@@H](CCSC)C(=O)OC
34) O=C(C1CCC(Cn2c(=S)[nH]c3ccccc3c2=O)CC1)N1CCN(c2ccccc2)CC1 (centres undefined)
35) COc1ccc(-c2c3c(=O)n(C)c(=O)n(C)c3cn2NC(C)=O)cc1
36) COC(=O)c1ccccc1NC(=O)CN1CCC(C(=O)c2ccc3c(c2)OCCO3)CC1
37) COCC(C)NC(=O)C1CC(c2cccc(Br)c2)=NO1 (centres undefined)
38) Brc1ccc2nc3c(n2c1)CCCC3
39) COc1ccccc1NC(=O)CN1CCC(n2nnc3cc(F)ccc32)CC1
40) C=CCSc1nnc2c(n1)[nH]c1c(C)cccc12
entry no.	33	34	35	36	37	38	39	40
ROCK2 inh	-6	0	7	-6	0	8	4	3
DUSP1 inh	-10	34	-6	2	-10	9	10	-2
TNAP act DEA	0.9	0.9	0.9	1	0.9	0.9	0.9	0.8
HEK293 NFkB inh	15	9	2	14	1	9	5	-44
Jurkat tox 60K	-3	15	-3	13	1	1	-1	10
Cdc25B inh	3	-9	-1	-4	-3	-5	-7	-17
MMP13 inh	2	3	-13	-3	1	4	2	3
PKA inh	-1	7	7	-8	-6	6	11	8

41) O=c1[nH]nc(Cc2ccccn2)c2ccccc12
42) CC(C)N1CCc2c(sc(NC(=O)c3ccc(S(=O)(=O)N4CCOCC4)cc3)c2C#N)C1
43) O=C(Nc1cccc(Cl)c1N1CCCC1)c1ccc(Br)o1
44) CSc1nc(N)nc(SCC(=O)OC(C)C)c1C#N
45) COC(=O)c1cc(Br)c(=O)n(Cc2ccc(OC)c(OC)c2)c1
46) Cn1nc(C(=O)Nc2sccc2C(N)=O)ccc1=O
47) COC(=O)c1cc(Br)c(=O)n(Cc2ccncc2)c1
48) COC(=O)c1cc(Br)c(=O)n(-c2nccs2)c1
entry no.	41	42	43	44	45	46	47	48
ROCK2 inh	7	-1	-2	6	3	-3	2	16
DUSP1 inh	-10	16	12	-31	-15	4	-11	-12
TNAP act DEA	0.9	1.1	0.9	0.8	0.8	1	0.8	0.8
HEK293 NFkB inh	17	18	26	·	10	2	17	·
Jurkat tox 60K	-2	7	1	·	-1	-1	2	·
Cdc25B inh	-13	-10	-2	-11	-2	1	-2	-25
MMP13 inh	2	-2	5	6	2	-2	0	-7
PKA inh	10	3	-2	4	7	0	4	6

Retrieved by compound from the entries so far, 6 records:
44) CSc1nc(N)nc(SCC(=O)OC(C)C)c1C#N
41) O=c1[nH]nc(Cc2ccccn2)c2ccccc12
47) COC(=O)c1cc(Br)c(=O)n(Cc2ccncc2)c1
42) CC(C)N1CCc2c(sc(NC(=O)c3ccc(S(=O)(=O)N4CCOCC4)cc3)c2C#N)C1
43) O=C(Nc1cccc(Cl)c1N1CCCC1)c1ccc(Br)o1
48) COC(=O)c1cc(Br)c(=O)n(-c2nccs2)c1
entry no.	44	41	47	42	43	48
ROCK2 inh	6	7	2	-1	-2	16
DUSP1 inh	-31	-10	-11	16	12	-12
TNAP act DEA	0.8	0.9	0.8	1.1	0.9	0.8
HEK293 NFkB inh	·	17	17	18	26	·
Jurkat tox 60K	·	-2	2	7	1	·
Cdc25B inh	-11	-13	-2	-10	-2	-25
MMP13 inh	6	2	0	-2	5	-7
PKA inh	4	10	4	3	-2	6

Other structures follow:
49) C=CCn1c(SCC(=O)N2CCOCC2)nc2scc(-c3ccco3)c2c1=O
50) O=C(Nc1nccs1)c1ccc(S(=O)(=O)N2CCCCC2)cc1
51) COc1ccc(OCCSc2nnc3sc4ccccc4n23)cc1
52) COC(=O)c1ccccc1NC(=O)C1COc2ccccc2O1 (centres undefined)
53) COc1cccc(C2=NOC(C(=O)Nc3cccnc3)C2)c1 (centres undefined)
54) CCCCC(=O)Nc1cccc(NC(=O)c2ccc(Br)o2)c1
55) NC(=O)c1ccsc1NC(=O)C1CC1
56) CCOc1ccc(C(=O)Nc2c(C(N)=O)oc3ccccc23)cc1
entry no.	49	50	51	52	53	54	55	56
ROCK2 inh	-1	3	4	8	0	0	-5	7
DUSP1 inh	34	4	-6	3	-1	6	4	28
TNAP act DEA	0.9	0.7	0.9	0.9	0.9	1	1	·
HEK293 NFkB inh	3	-5	1	·	8	23	9	-8
Jurkat tox 60K	5	-7	-3	·	12	7	7	-5
Cdc25B inh	-14	4	-16	-18	17	1	9	-11
MMP13 inh	2	-4	0	-2	3	-1	2	-11
PKA inh	1	-2	12	7	2	-6	-8	6

57) CCc1ccc(NC(=O)CS(=O)CC(=O)Nc2ccc(F)cc2F)cc1 (centres undefined)
58) NC(=O)c1ccsc1NC(=O)c1cccs1
59) COC(=O)c1ccc(=O)n(Cc2ccco2)c1
60) Cc1nc(CSc2nc3[nH]ncc3c(=O)n2-c2ccccc2)cs1
61) COc1ccc(-c2c3c(=O)n(C)c(=O)n(C)c3cn2Cc2cccnc2)cc1
62) CC(C)c1nc(N2CCOCC2)c(C#N)c2c1COC(C)(C)C2
63) CC(=O)c1sc(Nc2nc3ccc(F)cc3s2)nc1C
64) CCc1ccccc1NC(=O)CN1CCC(NC(=O)COC)CC1
entry no.	57	58	59	60	61	62	63	64
ROCK2 inh	1	6	8	-6	3	-5	2	-1
DUSP1 inh	22	7	-18	-9	-2	-14	38	12
TNAP act DEA	0.9	0.9	1	1	0.9	1	1	0.9
HEK293 NFkB inh	9	-8	·	16	1	·	-29	8
Jurkat tox 60K	-11	-7	·	6	5	·	13	-1
Cdc25B inh	1	0	9	-9	0	2	23	-7
MMP13 inh	0	-6	-14	4	-3	-107[fluorescence artefact?]	-28	6
PKA inh	5	-3	7	-10	4	6	5	2

65) O=c1c2cccnc2[nH]c(=S)n1CCCN1CCN(c2ccccc2F)CC1
66) CS(=O)(=O)N(CC(=O)NCc1ccc2c(c1)OCO2)c1ccccc1
67) CC1CCN(CCn2c(=S)[nH]c3ncccc3c2=O)CC1
68) C/C=C/c1ccc(Oc2nnnn2-c2ccc(C(=O)O)cc2)c(OC)c1
entry no.	65	66	67	68
ROCK2 inh	6	8	0	0
DUSP1 inh	0	-2	-10	14
TNAP act DEA	0.9	1	1	0.8
HEK293 NFkB inh	16	6	16	11
Jurkat tox 60K	-5	-2	1	0
Cdc25B inh	-2	-4	-5	-2
MMP13 inh	-3	4	-9	1
PKA inh	3	10	0	-1
